High-throughput results from PubChem BioAssay.
RE007 growth inh – less growth of the S. pombe RE007 Vpr strain; S. pombe RE007 Vpr strain, BacTiter-Glo ATP luminescence, 24 h; control for the full effect not named in the record; Potency, µM (top dose mostly 92.2 µM), without a hit: top-dose activity change, negative = less growth; hit rate 0.21% among 360,000; active = well fitted falling curve with a large enough effect; inconclusive = small, poorly fitted or top-dose-only effect; inactive = no such curve, though single readings can be large or run the other way;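 note: % is set by controls: 0 for no effect and ±100 for the full control effect; nearly all actives have a fitted effect of over 50% in size; the assay follows cell death caused by Vpr and the record does not say whether a fall means rescue or toxicity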
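Fission yeast RE007 carrying one integrated HIV-1 vpr copy, seeded at OD 0.01 in PMG+AL medium with 23 nL pinned compound. Grown 24 h at 30 degrees; viability read by BacTiter-Glo luminescence after 5 min.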
SARS PLP yeast – SARS-CoV PLP inhibition in yeast; S. cerevisiae expressing SARS-CoV PLpro, growth rescue; control for the full effect not named in the record; Potency, µM (doses to about 32.9 µM), inactives show at the highest dose activity, positive = growth rescue; hit rate 0.19% among 330,000; active means well fitted rising curve with a large enough effect; inconclusive means small, poorly fitted or top-dose-only effect; inactive means no such curve, though single readings can be large or run the other way; note: 0% is about no effect; nearly all actives have a fitted effect of over 55% in size; growth read by luminescence after 48 h
Cruzain inh Det – cruzain (T. cruzi) inhibition with detergent | Potency, µM, without a hit: max response, negative = inhibition, most hits filed as inhibitors | P25779 | purified cruzain, Z-FR-AMC fluorescence, 0.01% Triton | hit rate 0.43% among 200,000;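 note: plate controls were neutral wells for no effect and buffer without enzyme for full effect; nearly all actives have a fitted effect of over 40% in size; top concentration of the series not given in the record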
Target sequence (P25779 123-467 limits assumed): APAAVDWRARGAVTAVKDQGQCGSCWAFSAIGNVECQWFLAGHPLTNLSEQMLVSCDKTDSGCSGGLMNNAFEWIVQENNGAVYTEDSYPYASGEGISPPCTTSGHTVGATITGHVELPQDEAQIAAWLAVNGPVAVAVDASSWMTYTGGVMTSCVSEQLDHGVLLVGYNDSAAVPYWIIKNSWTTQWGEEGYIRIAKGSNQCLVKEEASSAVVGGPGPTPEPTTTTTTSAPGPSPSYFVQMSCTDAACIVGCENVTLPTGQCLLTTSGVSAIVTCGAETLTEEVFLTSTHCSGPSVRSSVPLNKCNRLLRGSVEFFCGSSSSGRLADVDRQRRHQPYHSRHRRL
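Detergent-containing arm of a paired screen for aggregation-based inhibition: 0.01% Triton X-100 present. Cruzain at 1.5 nM cleaved 2 uM Z-FR-AMC at pH 5.5 with 5 mM DTT; AMC fluorescence gain over 60 s measured activity.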
MARV entry inh – blocks Marburg virus binding to or entry into cells; AID 540276; Potency, µM (doses to about 37.8 µM), for the others: at the top dose activity change, negative = inhibition, usual class: inhibitors; hit rate 1.8% among 300,000; Marburg virus pseudotyped entry inhibition, cell reporter; control for the full effect not named in the record; about a third of the inactives were read at about 46 µM; active = well fitted inhibition curve with a large enough effect; inconclusive = small, poorly fitted or top-dose-only effect, or effect the other way; inactive = flat fitted curve, though single readings scatter; tested in HEK293 cells; about a fifth of its hits are not listed in these tables; note: % is set by controls: 0 for no effect and ±100 for the full control effect; luciferase read-out
LASV entry inh – blocks Lassa virus binding to or entry into cells. Potency, µM (series often up to 37.9 µM), for the others: top-dose activity change, negative = inhibition, usual class: inhibitors. hit rate 1.2% among 300,000. Lassa virus pseudotype entry inhibition, cell reporter; control for the full effect not named in the record; active means well fitted inhibition curve with a large enough effect; inconclusive means small, poorly fitted or top-dose-only effect, or effect the other way; inactive means flat fitted curve, though single readings scatter; tested in HEK293 cells; note: % is set by controls: 0 for no effect and ±100 for the full control effect; nearly all actives have a fitted effect of over 50% in size; luciferase read-out
2A StopGo – FMDV 2A StopGo reporter, luciferase signal. human cells with a luciferase reporter of 2A StopGo recoding; control for the full effect not named in the record. Potency, µM (top dose mostly 57.9 µM), for inactives: top-dose signal change, negative = less light. hit rate 1.2% among 410,000. AID 1159524; active = well fitted falling curve with a large enough effect; inconclusive = small, poorly fitted or top-dose-only effect; inactive = no such curve, though single readings can be large or run the other way; tested in HEK293T cells; note: % is set by controls: 0 for no effect and ±100 for the full control effect; nearly all actives have a fitted effect of over 45% in size; luciferase light after 4 h
NS1 function inh – inhibitors of influenza NS1 protein function. S. cerevisiae slowed by influenza A NS1, growth recovery by OD600. hit rate 0.4% among 270,000. Potency, µM (highest dose often 46.1 µM), for the others: at the highest dose activity, positive = more growth; active means well fitted rising curve with a large enough effect; inconclusive means small, poorly fitted or top-dose-only effect; inactive means no such curve, though single readings can be large or run the other way; note: nearly all actives have a fitted effect of over 50% in size
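Read-out: OD600 growth recovery of NS1-expressing budding yeast. Cells grown overnight at 30C in -URA glucose medium, washed, resuspended and diluted 1:100 in 2% galactose assay medium, pH 6.0. Same strain lacking NS1 served as positive control.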
Cruzain inh noDet – blocks cruzain activity in detergent-free assay; Potency, µM, without a hit: max response, negative = inhibition, actives largely listed as inhibitors; AID 1476; purified cruzain, Z-FR-AMC fluorescence, no detergent; hit rate 2.3% among 200,000;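 note: plate controls were enzyme without inhibitor for no effect and buffer without enzyme for full effect; nearly all actives have a fitted effect of over 40% in size; top concentration of the series not given in the record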
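Purified cruzain at 1.5 nM, pre-incubated 15 min with compound at room temperature in 100 mM sodium acetate pH 5.5, 5 mM DTT, 0.00005% Triton X-100. Reaction started with 2 uM Z-FR-AMC; AMC fluorescence increase over 60 s gives rate.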
Starred values were filed as active, the others as inactive; ? = inconclusive; nt = no result given; [ ] = dose if it differs, or a comment. Unless noted, calls come from the whole dose curve; as a rule, active = well fitted curve in the direction sought with a large enough effect; inconclusive = small, poorly fitted or top-dose-only effect, or another doubt; inactive = no such curve, though single readings can be large; an effect the other way counts as inactive or inconclusive. Potency is the fitted concentration of half-maximal effect. The order is random; overall some 4.8% were active at least once.

SMILES	RE007 growth inh	SARS PLP yeast	Cruzain inh Det	MARV entry inh	LASV entry inh	2A StopGo	NS1 function inh	Cruzain inh noDet
CC(C)OCCCNc1ncnc2c1[nH]c1ccccc12	1%	-3%	?	?	?	18µM*	-23%	16µM*
COc1nc(C)cc(C)c1S(=O)(=O)c1ccccc1	-2%	-1%	nt	nt	nt	-7%	0%	nt
CCc1cccc(C)c1NC(=O)c1cc(CN2CCCC2)on1	nt	nt	-1.5%	nt	22%[46.1 µM]	-19%	nt	-2%
COc1ccccc1NC(=O)c1cnc(SCC(=O)N2CCCc3ccccc32)n(C)c1=O	nt	nt	0.6%	nt	-2%[46.1 µM]	-5%	nt	-12%
CCOc1ccc(OCC)c(NC(=O)CN(C)S(=O)(=O)c2ccc3[nH]c(=O)oc3c2)c1	nt	nt	-5.5%	nt	-20%[46.1 µM]	-32%	nt	9%
O=C(Nc1ccc(C(F)(F)F)cc1)c1cc(S(=O)(=O)N2CCCc3ccccc32)ccc1F	nt	nt	-1.4%	nt	-9%[46.1 µM]	?	nt	-23%
CCCn1c2c(c(O)c(C(=O)NCCCN(CC)CC)c1=O)CCCC2	7%	22%	-0.6%	10µM*	-17%	-28%	-3%	4%
CN(C)S(=O)(=O)c1cc(NC(=O)CN2C(=O)NC3(CCCc4ccccc43)C2=O)ccc1Cl (stereo not given)	-15%	0%	-2.2%	9%	?	-22%	32%	-19%
O=C(COc1ccc(Cl)cc1)Nc1ccc(N2CCN(C(=O)c3ccco3)CC2)cc1	?	-2%	-2.0%	?	?	nt	-3%	1%
O=C(Nc1ccccn1)C(NS(=O)(=O)c1cccc2nsnc12)c1ccccc1 (stereo not given)	-6%	?	2.9%	-12%	-6%	1%	16%	?
O=C(OCc1cccc([N+](=O)[O-])c1)c1ccncc1	5%	0%	nt	nt	nt	-4%	0%	nt
CCCOc1ccccc1-c1nc(SCCC(=O)O)n[nH]1	0%	-9%	2.7%	24%	2%	-7%	16%	-3%
CC(C)NC(=O)C1CCN(C2CCN(Cc3nc4ccccc4s3)CC2)CC1	-17%	-1%	nt	-29%[46.1 µM]	10%[46.1 µM]	-4%	-1%	nt
O=C(c1ccc2c(=O)n(Cc3ccccc3Cl)c(=S)[nH]c2c1)N1CCCC1	8%	0%	nt	-9%[46.1 µM]	24%[46.1 µM]	-10%	4%	nt
Cc1ccc(C(=O)N/C(=C/c2cccnc2)C(=O)NCc2ccco2)cc1	-26%	-14%	0.6%	?	-2%	-7%	5%	4%
N=C1SC(CC(=O)Nc2ccc([N+](=O)[O-])cc2)C(=O)N1c1ccccc1 (stereo not given)	-10%	1%	nt	-5%[46.1 µM]	-15%	-14%	7%	nt
Oc1ccccc1-c1nc2c3ccccc3c3ccccc3c2[nH]1	-13%	-5%	nt	nt	nt	-18%	7%	nt
COc1ccc(CNC(=O)COC(=O)c2ccc3c(c2)OCCO3)cc1	9%	6%	0.3%	0%	?	4%	-7%	-1%
O=C(O)CCCCCN1C(=O)C(O)=C(C(=O)/C=C/c2ccccc2)C1c1ccc2c(c1)OCO2 (stereo not given)	5%	0%	nt	1%[46.1 µM]	14%[46.1 µM]	-1%	8%	nt
Nc1nc(NCCOCCO)nc(Nc2cccc(F)c2)c1[N+](=O)[O-]	1%	0%	nt	nt	nt	?	3%	nt
COc1ccc(CCNC(=O)CCc2c(C)nc3c4cccnc4nn3c2C)cc1OC	nt	nt	-4.3%	-3%[46.1 µM]	11%[46.1 µM]	-17%	nt	-5%
CCOC(=O)C1=NN(c2ccc(OC)cc2)C(c2ccccc2)CC1=O (stereo not given)	27%	23%	-11%	?	-5%	1%	7%	-9%
COc1ccc(O)c(-c2cc(-c3cccs3)[nH]n2)c1	?	-12%	-10%	?	11%	19%	-92%	0%
O=c1c2ccccc2nc2n1C(CSc1ccc(Cl)cc1)CN2 (stereo not given)	-14%	4%	-4.9%	24%	-7%	-9%	?	6%
O=C(c1ccc(COc2ccccc2[N+](=O)[O-])o1)N1CCCCC1	12%	0%	1.6%	7%	25%	30%[activator]	14%	-2%
Cc1ccc(NC(=O)CCc2nnc3n(C)c(=O)c4sccc4n23)cc1C	nt	nt	0.1%	0%[46.1 µM]	6%[46.1 µM]	-11%	nt	7%
Cc1cc2oc(=O)cc(-c3ccccc3)c2c(C)c1-c1ccc(OC(F)(F)F)cc1	5%	1%	-1.3%	nt	nt	-18%	nt	?
CCC(=O)Nc1cccc(NC(=O)c2cc3ccccc3o2)c1	36%	-17%	-2.7%	?	-14%	-16%	-38%	-5%
O=C(NC1CCCCC1)N1CCNCC1	20%	-10%	nt	-2%	10%	-15%	-12%	nt
c1ccc(C2C3=C(Nc4ncnn42)c2ccccc2CCC3)cc1 (stereo not given)	5%	0%	-0.9%	9%	6%	0%	-17%	-1%
COC(CNc1ncnc2c1cnn2C)OC	10%	0%	nt	2%	10%	-3%	nt	nt
Nc1nc(SCC(=O)N2CCN(S(=O)(=O)c3ccc(Cl)cc3)CC2)n[nH]1	0%	-5%	nt	nt	nt	7%	12%	nt
Cc1cc(C)c(OCC(=O)N2CCN(c3ncc(C(F)(F)F)cc3Cl)CC2)c(C)c1	-5%	-12%	nt	0%	3%	0%	-20%	nt
Cc1cc(=O)oc2cc(OCC(=O)N3CCOCC3)c(Cl)cc12	-16%	-4%	nt	?	3%	-3%	nt	nt
COc1ccc2nc(-c3ccco3)c(-c3ccco3)nc2c1	?	4%	11µM*	-20%	-20%	-18%	-4%	4µM*
CC(CCc1ccccc1)NC(=O)COC(=O)c1cccc2ccccc12 (stereo not given)	nt	-12%	-5.6%	?	?	-16%	2%	0%
Cc1cc(C)cc(NC(=O)CSc2nc(-c3cccc(Cl)c3)nc3c2Cc2c(CO)cnc(C)c2O3)c1	nt	nt	-0.6%	nt	-3%[46.1 µM]	-14%	nt	3%
CCCCCCNC(=O)C(C#N)c1nc2ccccc2nc1N1CCCC1 (stereo not given)	1%	14%	-9.1%	-7%	0%	-22%	-8%	-16%
CC1CCC(NC(=O)c2cc3c(s2)CCCC3)CC1 (stereo not given)	9%	8%	nt	?	?	29%	nt	nt
CCN(CC)c1ccc(/C=N/OCC(=O)N2CCCc3ccccc32)cc1	3%	-19%	-13%	-28%	-20%	-4%	-15%	4%
C/C(=N\N1CCN(c2ccccc2)CC1)c1ccc(O)cc1	-5%	-2%	nt	nt	nt	1%	0%	nt
COc1cc(CNc2ccc3[nH]c(=O)[nH]c3c2)ccc1OCc1ccc(C)cc1	-4%	-1%	nt	-24%[46.1 µM]	-12%[46.1 µM]	-2%	6%	nt
O=[N+]([O-])c1ccc(CSc2nnc(SCc3ccccc3)s2)cc1	-13%	-3%	-5.0%	3%	8%	1%	-7%	-7%
Cc1c2cnn(CC(=O)N3CCN(c4ccccc4)CC3)c(=O)c2c(C)n1Cc1ccccc1Cl	nt	nt	-2.8%	-1%[46.1 µM]	15%[46.1 µM]	?	nt	-2%
O=C(CSc1nc2ccccc2c(=O)n1CC1CCCO1)NCc1ccccc1 (stereo not given)	-3%	1%	nt	-10%	0%	-8%	-18%	nt

A stretch from further up:
SMILES	RE007 growth inh	SARS PLP yeast	Cruzain inh Det	MARV entry inh	LASV entry inh	2A StopGo	NS1 function inh	Cruzain inh noDet
CC(CCc1ccccc1)NC(=O)COC(=O)c1cccc2ccccc12 (stereo not given)	nt	-12%	-5.6%	?	?	-16%	2%	0%
Cc1cc(C)cc(NC(=O)CSc2nc(-c3cccc(Cl)c3)nc3c2Cc2c(CO)cnc(C)c2O3)c1	nt	nt	-0.6%	nt	-3%[46.1 µM]	-14%	nt	3%
CCCCCCNC(=O)C(C#N)c1nc2ccccc2nc1N1CCCC1 (stereo not given)	1%	14%	-9.1%	-7%	0%	-22%	-8%	-16%
CC1CCC(NC(=O)c2cc3c(s2)CCCC3)CC1 (stereo not given)	9%	8%	nt	?	?	29%	nt	nt
CCN(CC)c1ccc(/C=N/OCC(=O)N2CCCc3ccccc32)cc1	3%	-19%	-13%	-28%	-20%	-4%	-15%	4%
C/C(=N\N1CCN(c2ccccc2)CC1)c1ccc(O)cc1	-5%	-2%	nt	nt	nt	1%	0%	nt
COc1cc(CNc2ccc3[nH]c(=O)[nH]c3c2)ccc1OCc1ccc(C)cc1	-4%	-1%	nt	-24%[46.1 µM]	-12%[46.1 µM]	-2%	6%	nt
O=[N+]([O-])c1ccc(CSc2nnc(SCc3ccccc3)s2)cc1	-13%	-3%	-5.0%	3%	8%	1%	-7%	-7%
Cc1c2cnn(CC(=O)N3CCN(c4ccccc4)CC3)c(=O)c2c(C)n1Cc1ccccc1Cl	nt	nt	-2.8%	-1%[46.1 µM]	15%[46.1 µM]	?	nt	-2%
O=C(CSc1nc2ccccc2c(=O)n1CC1CCCO1)NCc1ccccc1 (stereo not given)	-3%	1%	nt	-10%	0%	-8%	-18%	nt

The results go on:
SMILES	RE007 growth inh	SARS PLP yeast	Cruzain inh Det	MARV entry inh	LASV entry inh	2A StopGo	NS1 function inh	Cruzain inh noDet
O=C(Nc1ccc(OC(=O)c2cccs2)cc1)c1ccco1	-15%	-12%	0.8%	?	?	44%[activator]	-31%	?
CCOc1ccc(OCC(=O)OCC(=O)N2CCN(C(=O)c3ccco3)CC2)cc1	5%	0%	nt	11%	19%	-8%	nt	nt
CCOP(=O)(OCC)/C(C#N)=C/c1c[nH]c2ccccc12	8%	1%	nt	nt	nt	-17%	4%	nt
O=C(CCn1ccc2cc(S(=O)(=O)N3CCCC3)ccc21)NCCc1ccccc1	11%	3%	nt	nt	nt	-2%	-4%	nt
COCC(C)n1c(C)cc(C(=O)Cn2nc(C(=O)O)c3ccccc3c2=O)c1C (stereo not given)	5%	4%	nt	14%[46.1 µM]	0%	-18%	nt	nt
COc1ccc([N+](=O)[O-])cc1NC(=O)C(C)OC(=O)Cn1[nH]c(=O)c2ccccc2c1=O (stereo not given)	-15%	3%	nt	-14%	8%[46.1 µM]	-6%	nt	nt
